Bioassay records from PubChem.
miR-21 reporter = qHTS Assay for Modulators of miRNAs and/orActivators of miR-21; HeLa miR-21 FLuc reporter, luciferase, 48 h; 340,000 tested, under 10 active; Potency, µM (series often up to 38.3 µM), for the others: at the highest dose reporter change, positive = more light; active = well fitted rising curve with a large enough effect; inconclusive = small, poorly fitted or top-dose-only effect; inactive = no such curve, though single readings can be large or run the other way;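 also: % of control where 0% means no effect; miR-21 action dims this reporter so a rising signal means less miR-21 action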
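HeLa cells stably expressing CMV-driven firefly luciferase with a downstream miR-21 binding sequence, endogenously expressing miR-21, were treated with titrations (up to about 40uM final) for 48 hours at 37 degree Celsius. Luciferase luminescence was read after lysis.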
Rango-impB inh = qHTS Assay for Inhibitors of Rango (Ran-regulated importin-beta cargo) - Importin beta complex formation. Importin subunit beta-1 (Homo sapiens), Q14974. Potency, µM (top dose mostly 92.2 µM), inactives show at the highest dose inhibition of complex formation. 340,000 compounds, 0.031% hits. Rango CFP/YFP FRET sensor + importin beta, 45 min. AID 540263, 2011; active = rising FRET ratio curve, often small or poorly fitted; inconclusive = mostly compound fluorescence or quenching in the first reads; inactive = flat curves in all reads;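 also: potency is read from the fitted curve at half-maximal effect; 0% = DMSO wells and 100% = buffer wells lacking importin beta; nearly all actives have a fitted effect of over 15% in size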
Target sequence (Q14974 whole entry, looked up): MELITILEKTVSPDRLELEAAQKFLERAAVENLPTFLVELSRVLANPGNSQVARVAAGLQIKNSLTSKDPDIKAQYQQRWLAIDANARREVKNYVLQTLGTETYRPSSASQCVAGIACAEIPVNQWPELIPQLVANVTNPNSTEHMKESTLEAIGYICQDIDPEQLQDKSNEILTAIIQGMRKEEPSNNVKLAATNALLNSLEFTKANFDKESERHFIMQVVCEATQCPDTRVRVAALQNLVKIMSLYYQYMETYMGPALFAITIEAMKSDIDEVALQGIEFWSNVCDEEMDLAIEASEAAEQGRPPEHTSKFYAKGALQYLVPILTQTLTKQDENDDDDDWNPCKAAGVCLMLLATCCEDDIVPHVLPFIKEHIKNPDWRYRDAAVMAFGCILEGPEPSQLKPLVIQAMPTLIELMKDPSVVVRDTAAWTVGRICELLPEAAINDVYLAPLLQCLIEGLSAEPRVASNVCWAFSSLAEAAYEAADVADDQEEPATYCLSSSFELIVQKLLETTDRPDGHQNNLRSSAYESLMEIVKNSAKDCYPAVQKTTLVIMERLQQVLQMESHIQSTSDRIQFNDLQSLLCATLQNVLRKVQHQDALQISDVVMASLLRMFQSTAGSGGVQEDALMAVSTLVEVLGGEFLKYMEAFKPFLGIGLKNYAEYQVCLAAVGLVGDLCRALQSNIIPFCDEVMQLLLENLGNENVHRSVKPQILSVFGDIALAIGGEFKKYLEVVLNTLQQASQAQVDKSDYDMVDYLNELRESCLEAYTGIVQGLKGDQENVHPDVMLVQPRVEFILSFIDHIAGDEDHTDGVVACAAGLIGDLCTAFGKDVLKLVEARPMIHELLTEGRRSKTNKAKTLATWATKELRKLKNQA
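FRET biosensor Rango (snurportin 1 IBB between N-terminal EYFP and C-terminal Cerulean), 50 nM in PBS/1 mM DTT/0.02% Tween-20/0.1% BSA, preincubated 5 min RT with compound; 0.125 microM importin beta added, 45 min RT, CFP/YFP FRET ratio read.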
GLA inh pH 4.5 = qHTS Assay for Inhibitors of Human alpha-Galactosidase at pH 4.5 | Alpha-galactosidase A (Homo sapiens), P06280 | purified enzyme, 4-MU-alpha-Gal fluorescence, pH 4.5 | activity change, negative = inhibition, % at 105 µM | 230,000 tested, under 10 active | AID 1467, 2008; inconclusive = small, poorly fitted or top-dose-only inhibition, or a rising curve; inactive = flat fitted curve, though single readings scatter; no compound was filed as active;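 also: 0% = full activity with enzyme and -100% = basal without enzyme; dose as in the result columns while the protocol names 77 µM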
Rango release inh = qHTS Assay for Inhibitors of RanGTP induced Rango (Ran-regulated importin-beta cargo) - Importin beta complex dissociation. 340,000 compounds, 0.071% hits. Snurportin-1 (Homo sapiens) + GTP-binding nuclear protein Ran (Homo sapiens) + Importin …. Potency, µM (highest dose often 46.1 µM), without a hit: at the highest dose activity change, negative = inhibition. AID 540253, 2011. Biochemical FRET Rango-importin beta, RanGTP-induced dissociation; active means falling FRET ratio curve, often poorly fitted, with flat reads before Ran was added; inconclusive means other falling curves, or compound fluorescence or quenching; inactive means flat or rising ratio curve;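 also: potency is read from the fitted curve at half-maximal effect; % of control where 0% means no effect; nearly all actives have a fitted effect of over 45% in size; -100% = wells without RanGTP and RCC1; the record marks most hits as doubtful in a second field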
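Rango (0.1 uM)–importin beta (0.25 uM) complex; RanGTP-RCC1 trigger; 45 min RT; CFP/YFP FRET read.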
* hit, by the source's call; u = inconclusive; x = no result given. This is a subset (hit frequency here may not be typical).

SMILES	miR-21 reporter	Rango-impB inh	GLA inh pH 4.5	Rango release inh
CC(C)n1c(NCc2cc(Cl)ccc2O)nc2ccccc21	13%	0.3%	-28	-5%
O=c1c(C(c2ccccc2)c2c(O)nc3n(c2=O)CCS3)c(O)nc2n1CCS2	-9%	2.2%	8	23%
COc1ccc(-n2ncc(Cl)c(Cl)c2=O)cc1	u	1.3%	-8	-4%
O=C(O)c1ccccc1C(=O)c1ccc(-c2ccccc2)cc1	-37%	3.0%	x	4%
Cc1cc2c(=O)n(CC(=O)N3CCN(c4ccccc4)CC3)cnc2s1	-1%	-0.2%	6	8%
C/C(=N\NC(=O)c1cc(C)nc2ccccc12)c1ccc([N+](=O)[O-])cc1	18%	-4.2%	-6	-24%
O=C(O)CCCCCNc1nc(=S)[nH]c2ccccc12	-5%	3.6%	8	-8%
N#C/C(=C/c1ccc2c(c1)OCO2)C(=O)NCCc1c[nH]c2ccccc12	19%	u	0	-19%
COc1ccc(-c2nnc(-c3cc4ccccc4oc3=O)o2)cc1	-37%	2.9%	-10	u
O=C(CSc1nc(O)cc(=O)[nH]1)N1c2ccccc2CCc2ccccc21	9%	0.6%	-2	-5%
COc1cccc(-c2coc3cc4oc(=O)c(CC(=O)O)c(C)c4cc23)c1	-34%	-0.5%	x	0%
Cc1[nH]nc(Nc2ccc(O)cc2)c1[N+](=O)[O-]	-14%	3.2%	-2	0%
N#CCOc1ccc(C2=NO[C@@H]3[C@@H]4C[C@@H]([C@H]5C(=O)N(c6ccc7c(c6)OCO7)C(=O)[C@@H]45)[C@H]23)cc1	0%	-1.0%	1	0%
FC(F)(F)c1ccnc(N2CCN(Cc3cnc(-c4ccccc4)[nH]3)CC2)c1	5%	0.0%	-8	-9%
COCc1cc(C)nc2sc(C(=O)NN)c(-n3cccc3)c12	-24%	0.1%	6	16%
CCn1cc(C(=O)NC2CC3CCC2C3)c(=O)c2ccc(C)nc21 (configuration not stated)	-5%	x	4	x
CN(C)CCCNC(=O)c1ccc(-c2nc(-c3ccc(Cl)cc3)cs2)cc1	45%	-0.1%	-3	6%
COc1ccc(OC)c(CNS(=O)(=O)c2cc(-c3cc(C)no3)ccc2OC)c1	-2%	-0.1%	x	2%
Oc1ccc(Br)cc1/C=N/Nc1ncc(-c2ccccc2)cn1	-3%	u	-1	-30%
CC(=O)N1CCN(c2ccc(S(=O)(=O)N3CCOCC3)cc2[N+](=O)[O-])CC1	x	4.5%	x	0%

Ordered by number of heavy atoms (low to high): part of the list above.
SMILES	miR-21 reporter	Rango-impB inh	GLA inh pH 4.5	Rango release inh
Cc1[nH]nc(Nc2ccc(O)cc2)c1[N+](=O)[O-]	-14%	3.2%	-2	0%
O=C(O)CCCCCNc1nc(=S)[nH]c2ccccc12	-5%	3.6%	8	-8%
COCc1cc(C)nc2sc(C(=O)NN)c(-n3cccc3)c12	-24%	0.1%	6	16%
O=C(O)c1ccccc1C(=O)c1ccc(-c2ccccc2)cc1	-37%	3.0%	x	4%
COc1ccc(-c2nnc(-c3cc4ccccc4oc3=O)o2)cc1	-37%	2.9%	-10	u
Cc1cc2c(=O)n(CC(=O)N3CCN(c4ccccc4)CC3)cnc2s1	-1%	-0.2%	6	8%
N#C/C(=C/c1ccc2c(c1)OCO2)C(=O)NCCc1c[nH]c2ccccc12	19%	u	0	-19%
FC(F)(F)c1ccnc(N2CCN(Cc3cnc(-c4ccccc4)[nH]3)CC2)c1	5%	0.0%	-8	-9%
COc1ccc(OC)c(CNS(=O)(=O)c2cc(-c3cc(C)no3)ccc2OC)c1	-2%	-0.1%	x	2%
N#CCOc1ccc(C2=NO[C@@H]3[C@@H]4C[C@@H]([C@H]5C(=O)N(c6ccc7c(c6)OCO7)C(=O)[C@@H]45)[C@H]23)cc1	0%	-1.0%	1	0%

(next part)
SMILES	miR-21 reporter	Rango-impB inh	GLA inh pH 4.5	Rango release inh
Cc1c(CN2CCC(CO)(Cc3ccccc3)CC2)c2ccccc2n1C	-10%	0.3%	0	-16%
Cc1ccccc1-n1nc(C)c2cc(C(=O)N3CCN(S(=O)(=O)c4ccc(F)cc4)CC3)sc21	-13%	-1.2%	6	0%
Cc1cc(C)c2nc(-c3cccnc3)cc(C(=O)NC(C)c3cnn(C)c3C)c2c1 (configuration not stated)	-1%	0.0%	2	10%
O=C(Nc1ccccc1)c1ccc[nH]1	-22%	-0.4%	7	21%
CC(NC(=O)c1cc2ccccc2o1)c1cccs1 (configuration not stated)	-5%	-0.4%	0	-6%
NNC(=S)Nc1cc(S(=O)(=O)N2CCOCC2)ccc1N1CCOCC1	0%	u	-2	8%
Cc1onc(-c2ccccc2)c1-c1csc(N/N=C/c2ccccc2)n1	3%	-2.8%	-9	10%
O=C(Nc1nnc(SCC(=O)N2CCCCC2)s1)c1ccc(F)cc1F	3%	-1.0%	x	-6%
Cn1cc(-c2cc(C(=O)O)on2)cn1	8%	1.1%	4	5%
COc1ccc(OC)c(NC(=O)CC2Oc3ccccc3NC2=O)c1 (configuration not stated)	-40%	-2.3%	x	1%
O=C(c1cccc([N+](=O)[O-])c1)N1CCN(S(=O)(=O)N2CCCCC2)CC1	3%	u	x	1%
CCOC(=O)N1CCC(N2CC34C=CC(O3)C(C(=O)Nc3ccc(C)cc3)C4C2=O)CC1 (configuration not stated)	-4%	-2.6%	-9	-5%
CCc1ccc(OCc2nnc(-c3ccccc3Br)o2)cc1	x	1.5%	x	9%
O=S1OC(c2ccccc2)c2cc(Cl)ccc21 (configuration not stated)	x	5.7%	x	9%
Cn1nnnc1SCC(=O)c1ccco1	-1%	-6.5%	6	-22%
COc1cc(OC)cc(C(=O)NNC(=O)CN2C(=O)NC(C)(c3ccccc3)C2=O)c1 (configuration not stated)	x	-0.2%	x	0%
CN(C)S(=O)(=O)c1ccc(C(=O)NCC(=O)Nc2ccc(F)c(F)c2)cc1	0%	1.6%	x	14%
COc1cc(NC2=Nc3cccc4cccc2c34)cc(OC)c1OC	2%	5.0%	-1	0%
C[C@@H]1CC=C[C@H]2[C@H]1C(=O)N(Cc1ccccc1)[C@H]2c1ccc2ccccc2c1	u	0.7%	-25	7%
CCC/C(C#CCCN1C(=O)c2ccccc2C1=O)=C1/c2ccccc2C(=O)N1c1ccccc1	x	-1.3%	x	-8%
Cc1ccc(-n2nc(C)c3c(-c4cccs4)c(C#N)c(N)nc32)cc1	-13%	-4.8%	4	18%
COc1ccccc1CNC(=O)C1CCCN(S(=O)(=O)c2c(C)[nH]c(=O)[nH]c2=O)C1 (configuration not stated)	4%	0.5%	-5	-5%
CCC(C)Oc1cc(-c2ccnc(Nc3cccc(Cl)c3)n2)ccn1 (configuration not stated)	u	0.8%	-3	0%
Cc1ccc(C)c(S(=O)(=O)N2CCN(C(=O)CCC(=O)NCc3ccc(Cl)cc3)CC2)c1	x	4.0%	x	6%
CCOCCCN1CC(C(=O)NCc2ccc3c(c2)OCO3)CC1=O (configuration not stated)	-4%	-0.1%	-11	13%
C/C(=N\NC(=O)c1cc(C)oc1C)c1ccc2c(c1)OCO2	-39%	-0.2%	4	-3%
COc1ccc(N(C(=O)c2ccc(F)cc2)C2=CC3CCC(C2)N3C)cc1 (configuration not stated)	-3%	0.2%	9	-12%
O=C(CN1C(=O)COc2ccccc21)c1cccc(Cl)c1	-9%	4.7%	8	13%
N=C1/C(=C\c2ccc(Br)o2)C(=O)N=C2SC(CC(=O)N3CCCCC3)=NN12	1%	u	x	6.5µM*
CCN1CCN(c2ccc(NC(=O)c3ccc(Cl)c(S(=O)(=O)N4CCCC4)c3)cc2)CC1	x	1.3%	x	8%
CCOc1ccc(N2C(=O)CC(Sc3n[nH]c(-c4ccccc4)n3)C2=O)cc1 (configuration not stated)	0%	0.9%	-8	-9%
O=C(COc1ccccc1)N1CCN=C1SCc1ccccc1F	-3%	-0.2%	-3	9%
C=CCOc1nc(-c2ccncc2)nc2ccccc12	-3%	0.0%	-9	0%
COc1ccc(-c2ccc(-c3nnc(-c4ccncc4)o3)cc2)cc1	-24%	x	5	x
O=C(Nc1ccc(F)cc1F)N1CCCCCC1	-24%	4.3%	x	2%
O=C(Nc1cccnc1)Nc1ccc(F)c(Cl)c1	-11%	-1.4%	-7	-4%
Cc1nc(C)c(/C(O)=C\c2nc3ccc([N+](=O)[O-])cc3oc2=O)o1	-9%	5.5%	0	2%
C=CCS/C(=N\n1cnc2ccccc2c1=O)N(CC)CC	-16%	1.9%	7	-5%
O=C(CN1CCN(S(=O)(=O)c2ccccc2F)CC1)NCC1(N2CCOCC2)CCCCC1	x	-0.5%	x	-3%
CC1=NN(c2ccccc2)C(=O)/C1=C/c1c(O)n(-c2ccc(F)cc2)[nH]c1=O	-35%	-1.5%	-7	32%
COc1ccc(CN(C)S(=O)(=O)c2nnc(NC(=O)c3ccccc3Br)s2)cc1	-4%	0.5%	x	10%
Cc1ccc(C)c(CN2C(=O)COc3ccc(C(=O)c4ccccc4C(=O)O)cc32)c1	2%	0.4%	u	2%
CCc1nnc(NC(=O)C2CC(=O)N(CCc3ccc(F)cc3)C2)s1 (configuration not stated)	8%	0.7%	x	-5%
CC1CCc2nc(NC(=O)Nc3ccc4c(c3)OCO4)sc2C1 (configuration not stated)	-21%	-0.8%	2	14%
O=C1C2C3c4ccccc4C(c4ccccc43)[C@@H]2C(=O)N1c1ccccn1 (some centres not stated)	16%	-1.3%	-26	-5%
CC(C)c1ccc(NC(=O)CN(Cc2ccccc2)S(C)(=O)=O)cc1	-3%	-0.7%	-2	-12%
CCn1c(SCC(=O)NC2CC2)nnc1-c1csc(C)c1	-2%	-0.2%	x	7%
CC1Oc2ccccc2OC1(O)c1ccc2ccccc2n1 (configuration not stated)	-3%	-5.3%	5	13%
CCCNC(=S)NC1CC2CCCC(C1)N2Cc1ccc(F)cc1 (configuration not stated)	-2%	u	x	-8%
COc1ccc(CC(=O)OCC(=O)NC(=O)NC2CCCC2)cc1	x	0.6%	x	u
Next part
SMILES	miR-21 reporter	Rango-impB inh	GLA inh pH 4.5	Rango release inh
COCc1cc(C)n(CC(=O)N/N=C/c2ccc(-c3ccc(Cl)c(C(=O)O)c3)o2)c(=O)c1C#N	1%	u	0	-17%
O=C(COC(=O)c1ccc(S(=O)(=O)N2CCCC2)cc1)Nc1cccc(F)c1	x	2.6%	x	-1%
COc1ccc(-c2c(-c3cc(OC)cc(OC)c3)n(C)c3ccc(-c4ccc(N(C)C)nc4)cc23)cc1	x	-1.7%	x	-3%
Cn1nnnc1SCC(=O)Nc1ccc(Cl)c(S(=O)(=O)N2CCOCC2)c1	-1%	0.3%	11	14%
COC(=O)C(CC(=O)c1ccc(Br)cc1)n1ccnc1 (configuration not stated)	28%	x	1	x
O=S(=O)(Nc1ccc(-n2cccc2)cc1)c1ccc(Cl)cc1Cl	1%	u	0	-2%
CC(Nc1ccc2c(c1)OCCO2)C(=O)Nc1ccc2c(c1)OCO2 (configuration not stated)	2%	2.0%	2	0%
O=C(CCC1CCCN(C(=O)C2=CCCC2)C1)N1CCN(c2ccccn2)CC1 (configuration not stated)	-17%	-0.3%	0	2%
CC1CCCC(C)N1C(=O)Cn1cnc2cc([N+](=O)[O-])ccc2c1=O (configuration not stated)	-4%	-3.9%	-7	-6%
Cc1cc(C)c2cc(C(=O)Nc3ccc4c(c3)OCO4)[nH]c2c1	-4%	-1.1%	-2	9%
